Source: PubChem (National Center for Advancing Translational Sciences (NCATS))
2A StopGo – FMDV 2A StopGo reporter, luciferase signal; human cells with a luciferase reporter of 2A StopGo recoding; control for the full effect not named in the record; Potency, µM (titrated, usually from 57.9 µM), for the others: top-dose signal change, negative = less light; hit rate 1.2% among 410,000; AID 1159524; active = well fitted falling curve with a large enough effect; inconclusive = small, poorly fitted or top-dose-only effect; inactive = no such curve, though single readings can be large or run the other way; tested in HEK293T cells; note: % is set by controls: 0 for no effect and ±100 for the full control effect; nearly all actives have a fitted effect of over 45% in size; luciferase light after 4 h
Cruzain Triton – inhibitors of Trypanosoma cruzi cruzain with detergent | hit rate 0.43% among 200,000 | Potency, µM, for inactives: max response, negative = inhibition, most hits filed as inhibitors | purified cruzain, Z-FR-AMC fluorescence, 0.01% Triton | P25779 | AID 1478;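 note: plate controls were neutral wells for no effect and buffer without enzyme for full effect; nearly all actives have a fitted effect of over 40% in size; top concentration of the series not given in the record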
Target sequence (P25779 123-467 limits assumed): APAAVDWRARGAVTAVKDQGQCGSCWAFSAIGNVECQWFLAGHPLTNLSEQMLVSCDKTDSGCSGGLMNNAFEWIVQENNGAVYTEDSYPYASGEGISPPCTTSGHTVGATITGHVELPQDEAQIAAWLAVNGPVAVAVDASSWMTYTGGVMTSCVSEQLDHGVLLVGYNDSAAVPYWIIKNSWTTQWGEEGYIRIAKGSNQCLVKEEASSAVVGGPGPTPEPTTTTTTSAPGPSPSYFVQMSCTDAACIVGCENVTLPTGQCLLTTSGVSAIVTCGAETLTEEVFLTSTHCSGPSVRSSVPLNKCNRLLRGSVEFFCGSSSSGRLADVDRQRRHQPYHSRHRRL
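Read-out: AMC fluorescence (360 nm excitation, 450 nm emission), four reads over 2 min, first-to-third difference used. Conditions: cruzain 1.5 nM, Z-FR-AMC 2 uM, pH 5.5 acetate, 5 mM DTT, 0.01% Triton X-100.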
Cruzain noTriton – cruzain (T. cruzi) inhibition without detergent | purified cruzain, Z-FR-AMC fluorescence, no detergent | Potency, µM, inactives show max response, negative = inhibition, hits mostly inhibitors | hit rate 2.3% among 200,000 | AID 1476;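 note: plate controls were enzyme without inhibitor for no effect and buffer without enzyme for full effect; nearly all actives have a fitted effect of over 40% in size; top concentration of the series not given in the record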
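Purified cruzain at 1.5 nM, pre-incubated 15 min with compound at room temperature in 100 mM sodium acetate pH 5.5, 5 mM DTT, 0.00005% Triton X-100. Reaction started with 2 uM Z-FR-AMC; AMC fluorescence increase over 60 s gives rate.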
LASV entry inh – inhibitors of Lassa virus binding or cell entry; Potency, µM (titrated, usually from 37.9 µM), without a hit: top-dose activity change, negative = inhibition, actives largely listed as inhibitors; hit rate 1.2% among 300,000; AID 540256; Lassa virus pseudotype entry inhibition, cell reporter; control for the full effect not named in the record; active means well fitted inhibition curve with a large enough effect; inconclusive means small, poorly fitted or top-dose-only effect, or effect the other way; inactive means flat fitted curve, though single readings scatter; tested in HEK293 cells; note: % is set by controls: 0 for no effect and ±100 for the full control effect; nearly all actives have a fitted effect of over 50% in size; luciferase read-out
SARS PLpro yeast – blocks SARS-CoV papain-like protease in a yeast assay | S. cerevisiae expressing SARS-CoV PLpro, growth rescue; control for the full effect not named in the record | Potency, µM (titrated, usually from 32.9 µM), without a hit: at the highest dose activity, positive = growth rescue | hit rate 0.19% among 330,000; active means well fitted rising curve with a large enough effect; inconclusive means small, poorly fitted or top-dose-only effect; inactive means no such curve, though single readings can be large or run the other way; note: 0% is about no effect; nearly all actives have a fitted effect of over 55% in size; growth read by luminescence after 48 h
RE007 growth inh – less growth of the S. pombe RE007 Vpr strain; S. pombe RE007 Vpr strain, BacTiter-Glo ATP luminescence, 24 h; control for the full effect not named in the record; Potency, µM (top dose mostly 92.2 µM), for inactives: at the top dose activity change, negative = less growth; hit rate 0.21% among 360,000; AID 651644; active = well fitted falling curve with a large enough effect; inconclusive = small, poorly fitted or top-dose-only effect; inactive = no such curve, though single readings can be large or run the other way;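 note: % is set by controls: 0 for no effect and ±100 for the full control effect; nearly all actives have a fitted effect of over 50% in size; the assay follows cell death caused by Vpr and the record does not say whether a fall means rescue or toxicity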
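Fission yeast RE007 carrying one integrated HIV-1 vpr copy, seeded at OD 0.01 in PMG+AL medium with 23 nL pinned compound. Grown 24 h at 30 degrees; viability read by BacTiter-Glo luminescence after 5 min.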
MARV entry inh – Marburg virus entry inhibition. Marburg virus pseudotyped entry inhibition, cell reporter; control for the full effect not named in the record; about a third of the inactives were read at about 46 µM. Potency, µM (series often up to 37.8 µM), for inactives: at the top dose activity change, negative = inhibition, usual class: inhibitors. hit rate 1.8% among 300,000. AID 540276; active = well fitted inhibition curve with a large enough effect; inconclusive = small, poorly fitted or top-dose-only effect, or effect the other way; inactive = flat fitted curve, though single readings scatter; tested in HEK293 cells; about a fifth of its hits are not listed in these tables; note: % is set by controls: 0 for no effect and ±100 for the full control effect; luciferase read-out
NS1 inh – blocks influenza NS1 protein function. hit rate 0.4% among 270,000. S. cerevisiae slowed by influenza A NS1, growth recovery by OD600. Potency, µM (top dose mostly 46.1 µM), for the others: at the highest dose activity, positive = more growth. AID 2326; active means well fitted rising curve with a large enough effect; inconclusive means small, poorly fitted or top-dose-only effect; inactive means no such curve, though single readings can be large or run the other way; note: nearly all actives have a fitted effect of over 50% in size
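Recovery from NS1-induced slow growth read by OD600 in budding yeast switched to galactose assay medium (pH 6.0, -URA) at 1:100 dilution. Compound 23 nl per well; the matching strain lacking NS1 serves as control.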
Starred values were filed as active, the others as inactive; ? = inconclusive; . = no result given; & = joins results of further samples; [ ] = dose if it differs, or a comment. Unless noted, calls come from the whole dose curve; as a rule, active = well fitted curve in the direction sought with a large enough effect; inconclusive = small, poorly fitted or top-dose-only effect, or another doubt; inactive = no such curve, though single readings can be large; an effect the other way counts as inactive or inconclusive. Potency is the fitted concentration of half-maximal effect.

SMILES	2A StopGo	Cruzain Triton	Cruzain noTriton	LASV entry inh	SARS PLpro yeast	RE007 growth inh	MARV entry inh	NS1 inh
CCCCN1C(=O)C(NC(C)=O)c2ccccc21 (stereo unspecified)	6%	1.4%	3%	-21%	-5%	-7%	?	-2%
Cc1ccc(S(=O)(=O)c2nc(NC3CCS(=O)(=O)C3)sc2Cl)cc1 (stereo unspecified)	-28%	2.3%	-3%	3%	20%	8%	-13%	9%
O=C(Nc1ccccc1C(=O)O)c1cc(S(=O)(=O)Nc2cccc(F)c2)ccc1Cl	-15%	.	.	.	-2%	14%	.	?
CCOP(=O)(O)c1ccccc1OCCOc1ccccc1P(=O)(O)OCC	.	1.6%	2%	1%	7%	-4%	0%	8%
O=C(/C=C/c1ccco1)N(Cc1cccc(Br)c1)C1CCS(=O)(=O)C1 (stereo unspecified)	-16%	.	.	12%	-4%	-6%	10%	8%
N#CCCN(C(=O)COC(=O)CNC(=O)c1cccs1)c1ccc(F)cc1	-21%	.	.	11%	-5%	2%	15%	.
O=C(Nc1nnc(C2CC2)s1)c1ccc(Cl)c(S(=O)(=O)N2CCc3ccccc3C2)c1	0%	-5.3%	25µM*	-3%	20%	-3%	?	5%
O=C(O)CC(c1ccc(OC2CCCC2)cc1)N1C(=O)c2ccccc2C1=O (stereo unspecified)	-3%	.	.	8%	1%	2%	29%	9%
CCCOc1ccccc1-c1nc2c([nH]1)c(=O)[nH]c(=O)n2C	-18%	0.4%	17%	-26%	1%	-2%	-15%[46.1 µM]	-3%
COc1ccc(C)cc1-n1nnnc1SCC(=O)Nc1cccnc1Cl	0%	-1.4%	-14%	-1%	8%	0%	-37%	-5%
COc1ccc(C(=O)NC(=S)NCc2cccnc2)cc1Cl	-11%	.	.	-6%	-3%	-14%	-5%[46.1 µM]	-10%
O=C(CN1C(=O)/C(=C2/SC(=S)N(CCS(=O)(=O)O)C2=O)c2ccccc21)Nc1cccc(C(F)(F)F)c1	-27%	.	.	-2%[46.1 µM]	5%	-15%	2%[46.1 µM]	.
O=C(NCCc1c[nH]c2ccccc12)C1CCN(S(=O)(=O)c2ccccc2)CC1	-13%	.	.	.	1%	-5%	.	-3%
Cc1ccc(-n2c(O)c(/C=N/Nc3ccc(S(=O)(=O)N4CCOCC4)cc3[N+](=O)[O-])c3ccccc3c2=O)c(C)c1	10µM*	-3.0%	8%	?	-9%	-18%	?	2.5µM*
COc1ncnc(OC)c1S(=O)(=O)NCc1ccccc1	60%[activator]	.	.	-1%	1%	-7%	?	0%
O=C(CCS(=O)(=O)c1ccc(Cl)cc1)N1CCCc2ccccc21	-4%	.	.	13%	.	-9%	30%	.
CCC1(C)Cc2c(sc3nn[nH]c(=O)c23)CO1 (stereo unspecified)	2%	0.4%	-5%	3%	4%	4%	4%	-7%
CCOc1ccc2oc(C(=O)NCc3nc4ccccc4[nH]3)c(C)c2c1	-6%	.	.	3%	1%	2%	-23%	12%
O=C(Cc1cccs1)Nc1c(C(=O)Nc2ccc(F)cc2)oc2ccccc12	0%	-0.9%	5%	2%[46.1 µM]	.	.	5%[46.1 µM]	.
O=[N+]([O-])c1ccccc1S(=O)(=O)N1CCCc2ccccc21	-8%	.	.	.	-3%	-2%	.	-22%
CCN1CCN(C(=O)/C(=C/c2ccco2)NC(=O)c2ccccc2)CC1	2%	.	.	11%	-3%	19%	27%[46.1 µM]	-8%
O=[N+]([O-])c1cc(S(=O)(=O)O)cc([N+](=O)[O-])c1NN(c1ccccc1)c1ccccc1	-11%	.	.	26%[46.1 µM]	6%	10%	?	3%
Cc1ccsc1C(=O)NCc1ccc(Cl)cc1	12%	.	.	5%	.	23%	9%[46.1 µM]	.
COc1ccc(CCNC(=O)C2COc3ccccc3O2)cc1OC (stereo unspecified)	-7%	.	.	-11%[46.1 µM]	.	-9%	2%[46.1 µM]	.
COc1cc(OC)c(N2CC34C=CC(O3)C(C(=O)O)C4C2=O)cc1Cl (stereo unspecified)	9%	1.7%	-17%	12%	0%	18%	13%	6%

(listing goes on)
SMILES	2A StopGo	Cruzain Triton	Cruzain noTriton	LASV entry inh	SARS PLpro yeast	RE007 growth inh	MARV entry inh	NS1 inh
Cc1ccccc1N1C(=O)NC(=O)/C(=C\c2cnn(-c3ccccc3)c2)C1=O	?	0.1%	5%	2%	19%	2%	-2%	28%
Cc1ccn2c(NC3CCCC3)c(-c3ccccn3)nc2c1	?	.	.	?	-20%	?	?	.
COc1ccccc1/C=C/C=N/NC(=O)CN1CCN(S(=O)(=O)c2ccc(C)cc2)CC1	-24%	-9.8%	13%	-18%	26%	3%	?	-9%
CCCCc1c(C)c(C#N)c2nc3ccccc3n2c1Nc1c(C)n(C)n(-c2ccccc2)c1=O	-14%	-7.7%	8%	-31%	5%	2%	-29%	-12%
COc1ccc(CC2S/C(=N/N=C/c3ccccc3O)NC2=O)cc1 (stereo unspecified)	-8%	.	.	.	1%	?	.	-7%
CC1CCN(CCCNC(=O)C2CC(=O)N(C3CCCCCC3)C2)CC1 (stereo unspecified)	7%	1.9%	-12%	6%	1%	-3%	0%	2%
O=C(NC1CCCCC1)N1CCN(c2ccc([N+](=O)[O-])cc2)CC1	?	.	.	.	13%	-7%	.	-9%
C=C[C@@H]1C[C@@]1(C)[C@@H](NP(=O)(c1ccccc1)c1ccccc1)c1ccccc1	-9%	-3.5%&-8.2%	1%&2%	?	11%	2%	-42%	-4%
COc1ccccc1CC(=O)Nc1cccc(S(=O)(=O)N2CCOCC2)c1	-1%	.	.	-8%	3%	5%	9%	13%
C=C1C(=O)C=C2CN(C(=O)c3ccccc3)[C@@](Cc3ccc(F)cc3)(C(=O)OC)[C@@H]12	3.2µM*	-1.2%&-6.6%	?	21µM*	-25%	12%	?	5%
Cc1nn(-c2ccc(NC(=O)c3ccncc3)cc2)c(C)c1Cl	18µM*	.	.	?	2%	-3%	?	-14%
CC(C)c1ccc(NC(=O)CNC(=O)Cn2ccc3ccccc3c2=O)cc1	16%&10%	0.7%	-2%	7%&6%[46.1 µM]	-5%	5%	-14%&6%[46.1 µM]	-2%
Cc1ccc(N(Cc2cccs2)C(=O)c2ccccc2[N+](=O)[O-])cc1	-17%	-5.7%	-2%	3%[46.1 µM]	.	.	-2%[46.1 µM]	.
CC(C)Nc1c(N)c(=O)oc2ccccc12	-8%	-3.3%	-6%	-2%	2%	27%	16%	0%
CS(=O)(=O)N1CCC(C(=O)NCc2ccncc2)CC1	-14%	3.5%	3%	12%	1%	-15%	-10%	3%
Cc1ccc(-c2nn3c(C)nnc3c3ccccc23)cc1S(=O)(=O)NCc1ccccc1	100%[activator]	-7.6%	13%	-12%	-6%	5%	?	6%
CNc1c([N+](=O)[O-])ncn1C	0%	3.2%	-3%	1%	-6%	3%	10%	1%
Cc1ccc(S(=O)(=O)NCC(=O)OCC(=O)c2c(N)n(C)c(=O)n(C)c2=O)cc1	-7%	3.8%	0%	12%	-8%	5%	?	-3%
CCOc1cccc2cc(C(=O)N3CCOCC3)c(=O)oc12	5%	.	.	26%[46.1 µM]	5%	2%	0%[46.1 µM]	5%
Fc1ccccc1CSc1nnc(-c2cccs2)o1	.	-2.0%	-2%	2%	-14%	2%	8%	-70%
C(=N\Nc1nc(-c2ccccc2)cs1)/c1ccco1	-20%	-14%	?	?	-50%	-12%	?	1%
Cn1c(N)cc(=O)n(C)c1=S	-12%	.	.	-25%	.	8%	-7%	.
Cc1cc(C)c(C(=O)Nn2c(C)nc3ccccc3c2=O)cc1C	?	.	.	.	-4%	-4%	.	-9%
O=C(COC(=O)c1cccc(S(=O)(=O)N2CCc3ccccc32)c1)NCc1ccco1	2%	.	.	1%	-1%	22%	5%[46.1 µM]	-1%
Cc1ccc(CSc2cn(CC(=O)N3CCCCC3)c3ccccc23)cc1	16%	-9.3%	3%	?	.	.	.	.

New compounds follow.
SMILES	2A StopGo	Cruzain Triton	Cruzain noTriton	LASV entry inh	SARS PLpro yeast	RE007 growth inh	MARV entry inh	NS1 inh
Cc1c(N2C(=O)/C(=C3\C(=O)N(CC(=O)O)c4ccccc43)SC2=S)c(=O)n(-c2ccccc2)n1C	25µM*	.	.	.	1%	-16%	.	-6%
Cc1sc(NC(=O)C2=COCCO2)c(C(N)=O)c1C	48%[activator]	.	.	-4%	-5%	-2%	?	.
COc1cc(CCC(=O)OCC(=O)Nc2c(Cl)cccc2Cl)cc(OC)c1OC	-26%	.	.	-2%	2%	-7%	-14%[46.1 µM]	8%
C=CCOc1ccc(/C(O)=C2/C(=O)C(=O)N(CCCN3CCOCC3)C2c2ccc(OC)cc2)cc1 (stereo unspecified)	3%	-5.7%	-13%	0%	-1%	9%	15%	24%
COc1ccc(N(CC(=O)NC2CCCCC2)C(=O)CCC(=O)Nc2nc(C)cs2)cc1	-7%	.	.	?	1%	-12%	?	-19%
NC(=O)COC(=O)c1ccc(S(=O)(=O)NCc2ccco2)cc1	35%[activator]	.	.	5%	1%	8%	-7%[46.1 µM]	.
COc1ccc(/C=C2\CCC(C3CCCC3)C2=O)cc1OC (stereo unspecified)	72%[activator]	.	.	0%	0%	-13%	?	5%
CC1CC(C)CN(c2ccc(C(=O)NCc3ccc4c(c3)OCO4)cc2[N+](=O)[O-])C1 (stereo unspecified)	30%[activator]	-7.6%	-2%	9%	12%	12%	?	10µM*
O=C(CSc1nc2ccccc2s1)NNC(=S)Nc1ccccc1	-8%	-3.4%	0%	2%	?	11%	14%	?
O=C(Cn1ccn(-c2ccc(F)c(Cl)c2)c(=O)c1=O)NCCc1ccccc1	-15%	.	.	-3%	-2%	-13%	-12%[46.1 µM]	.
Nc1nc(SCC(=O)Nc2ccc(F)cc2)[nH]c(=O)c1NC(=O)c1ccc(F)c(F)c1	-1%	.	.	?	1%	18%	13%	6%
Cc1ccc(/C=C(/C#N)C(=O)NC(=O)Oc2ccccc2)cc1	39%[activator]	1.7%	-3%	?	-11%	-18%	?	-12%
Cc1ccc(OC(=O)CSc2nnc(-c3ccc4c(c3)OCO4)o2)cc1	-21%	-1.8%	10%	17%[46.1 µM]	.	.	-9%[46.1 µM]	.
O=C(O)c1ccccc1OC(C(=O)Nc1cc(Cl)cc(Cl)c1)c1ccccc1 (stereo unspecified)	-18%	.	.	-17%	0%	3%	?	1%
